H5N1 CPE – MDCK cell protection from H5N1 avian flu; cytopathic effect, luminescence, 72 h; stronger effect = higher value; no value below 0 was filed and about half of the inactive calls have no number; reference of the scale not given here; inhibition, % at 50 µM; 96,000 compounds, 0.07% hits; in the data active means inhibition above about 25%
Active calls of the source: *; i = inactive. An excerpt; count on the stated rates, not on these rows.

SMILES	H5N1 CPE
CC1(C)CC(=O)C(C=NCCc2ccc(S(N)(=O)=O)cc2)=C(O)C1	i
CC1S/C(=C(\C#N)C(N)=O)N(c2ccc(F)cc2)C1=O (stereo unspecified)	0.6
Cc1ccc(SC(=O)COc2ccc(C)c(C)c2)cc1	i
Cc1cccnc1Sc1c([N+](=O)[O-])ncn1C	i
COc1ccc(N2C(=O)[C@@H]3[C@H](C2=O)[C@H]2c4ccccc4C=CN2[C@@H]3C(=O)Nc2ccccc2)cc1	i
CCCC1Cc2c(sc3nc(SC)nc(N)c23)CO1 (stereo unspecified)	i
COc1ccc(C2OC(=O)CC2C(=O)NC2CCCCCC2)cc1OC (stereo unspecified)	0.1
COc1cc(C(=O)NCc2ccco2)cc(OC)c1OC	2.5
Cc1ccc(C2=[N+]([O-])C(C)N(O)C2(C)C)o1 (stereo unspecified)	i
COC(=O)c1ccccc1NC(=O)Cn1cnc2cc(C)c(C)cc21	0.1
C=CCn1c(SCC(=O)NC23CC4CC(CC(C4)C2)C3)nc(O)cc1=O	0.5
CC(Sc1nnc(N)s1)C(=O)Nc1ccc(N2CCOCC2)cc1 (stereo unspecified)	1.1
CCn1c(-c2ccoc2C)n[nH]c1=S	1.1
CSc1ccc(C#N)cc1NC(=O)c1ccc(Cl)cc1	i
COc1ccccc1NC(=O)c1nn(C)cc1Br	i
CCCOc1ccc(C(=O)NNC(=S)NC(C)=O)cc1	5.4
CC(C)NC(=O)c1ccccc1N(Cc1ccccc1)S(C)(=O)=O	i
O=C(CSc1nnc2c(n1)[nH]c1ccccc12)Nc1ccc2c(c1)OCO2	4.6
c1ccc(Oc2ccc(-c3ccnc4nc(N5CCN(c6ccccc6)CC5)nn34)cc2)cc1	i
COc1ccc(NC(=O)CSc2c(C)n[nH]c2C)cc1	0.4
COc1ccc(S(=O)(=O)N(C)c2ccc(C(=O)N3CCC(C(N)=O)CC3)cc2)cc1	0.3
COCCOC(=O)c1c(C)n(C)c2ccc(OC(=O)c3cccs3)cc12	0.4
CC(=O)c1ccc(NC(=S)N2C(C)CCCC2C)cc1 (stereo unspecified)	0.7
COC(=O)c1ccc(CSc2nc3ccc(C)cc3[nH]2)o1	i
CN1CCN(c2ccc(Cl)cc2NS(=O)(=O)c2ccccc2Cl)CC1	i
CC1(C)Cc2c(c(N3CCOCC3)nc3sc4c(NN)ncnc4c23)CS1	27*
CCOC(=O)c1sc2nc(C3CC3)cc(-c3ccc(F)cc3)c2c1N	i
COc1ccc(C2c3sc(=O)[nH]c3SC3C(=O)N(c4ccccc4)C(=O)C32)cc1 (stereo unspecified)	i
COC(=O)c1cc(NS(=O)(=O)c2ccc3c(c2)CCC(=O)N3)cc(C(=O)OC)c1	0.4
COC(=O)c1cc(OC)c(OC)cc1NC(=O)c1cnccn1	i
COCCn1nnnc1C(c1cc2cccc(C)c2[nH]c1=O)N1CCN(c2ccccc2F)CC1 (stereo unspecified)	i
CCOC(=O)CNC(=O)CSc1nc(Cc2cccs2)nc2ccccc12	i
COc1ccc(C2C(C(=O)N3CCCCC3)c3ccccc3C(=O)N2C)cc1 (stereo unspecified)	i
Cc1ccc(Nc2cc(C)nn2-c2nc(C)cc(=O)[nH]2)cc1	4.7
Cc1noc(C)c1S(=O)(=O)Nc1ccc(C(=O)O)cc1	i
CCc1c(C)nc(N)n2c(SCC(=O)N3CCCC(C)C3)nnc12 (stereo unspecified)	0.6
COC(=O)c1[nH]c(C)c(/C(O)=C2\C(=O)C(=O)N(CCN(C)C)C2c2cccs2)c1C (stereo unspecified)	i
O=C(CSc1nnc(-c2ccco2)n1-c1ccccc1)N1CCN(C(=O)c2ccco2)CC1	1.1
CCn1ccc(C(=O)Oc2ccc(C(C)C)cc2)n1	i
Cc1sc2ncn(CC(=O)N3CCC4(CC3)OCCO4)c(=O)c2c1C	1.0

The list goes on; it opens with the five that closed the last part.
SMILES	H5N1 CPE
CCc1c(C)nc(N)n2c(SCC(=O)N3CCCC(C)C3)nnc12 (stereo unspecified)	0.6
COC(=O)c1[nH]c(C)c(/C(O)=C2\C(=O)C(=O)N(CCN(C)C)C2c2cccs2)c1C (stereo unspecified)	i
O=C(CSc1nnc(-c2ccco2)n1-c1ccccc1)N1CCN(C(=O)c2ccco2)CC1	1.1
CCn1ccc(C(=O)Oc2ccc(C(C)C)cc2)n1	i
Cc1sc2ncn(CC(=O)N3CCC4(CC3)OCCO4)c(=O)c2c1C	1.0
COC(=O)c1[nH]c2ccc(C)cc2c1NC(=O)C1=COCCO1	0.3
Cc1cc(-c2csc(NC(=O)c3ccc(=O)n(C)n3)n2)c(C)n1CC1CCCO1 (stereo unspecified)	1.1
Cc1cn(Cc2ccccc2)c(=O)[nH]c1=O	i
O=c1c2cc(N3CCOCC3)ccc2[nH]c(=S)n1Cc1ccco1	0.6
N#CCCN(Cc1cccnc1)C(=O)c1ccc(S(=O)(=O)N2CCOCC2)cc1	i
O=C(CCN1C(=O)COc2ccccc21)NCCN1CCN(c2cccc(Cl)c2)CC1	i
Nc1ccc(Cl)c(-c2nc3ncccc3o2)c1	1.2
CCCc1cc(C(=O)N2CCN(C(c3ccccc3)c3ccccc3)CC2)no1	0.0
O=C(O/N=C1\CCCCC1c1ccc([N+](=O)[O-])cc1[N+](=O)[O-])c1c(F)cccc1F (stereo unspecified)	1.9
O=C(NCc1ccco1)c1csc2c1CCCCC2	7.2
CC1CC(C)CN(CCCNC(=O)C2CCN(S(=O)(=O)N3CCCCC3)CC2)C1 (stereo unspecified)	0.1
Cc1ccc(C(=O)/C=C/c2ccc(Br)cc2)o1	0.4
CC(C)C12CCC(C(=O)O)C(C1)C(=O)O2 (stereo unspecified)	0.5
Cc1ccccc1NC(=S)NC(NC(=O)c1ccccc1C)C(Cl)(Cl)Cl (stereo unspecified)	0.5
CC1CCCC(NC(=O)c2ccc(CNc3c(N4CCCC4)c(=O)c3=O)cc2)C1C (stereo unspecified)	1.0
Cc1ccc2c(CC(=O)OC3CCOC3=O)coc2c1 (stereo unspecified)	0.1
O=C1C2CCCN2C(c2ccccc2)N1c1cccc(Cl)c1 (stereo unspecified)	i
CC1CC(C)CN(CC(C)(C)NS(=O)(=O)c2ccccc2)C1 (stereo unspecified)	0.2
N#CC(=C1CCCC1)c1nc(-c2ccccc2)cs1	i
O=C(CN1CCN(c2ccc(Cl)cc2)CC1)Nc1ccc(F)cc1	i
CCOC(=O)c1ccc(NC(=S)NC2CC(C)(C)NC(C)(C)C2)cc1	i
CCc1cccc(C)c1N(C(=O)Cn1c(=O)[nH]c2ccccc21)C(C)COC (stereo unspecified)	0.1
CCCCN(CC)CCCNC(=O)Cn1nc(Cc2cccnc2)c2ccccc2c1=O	1.2
O=C(CN1CCN(CCOCCO)CC1)N1c2ccccc2Sc2ccc(Cl)cc21	0.3
Cc1c(C(=O)OCC(=O)N2CC(=O)Nc3ccccc32)oc2ccc(Br)cc12	i
CCCC(C)NC(=O)c1ccc2[nH]c3c(c2c1)CC(C)CC3 (stereo unspecified)	3.1
Cc1cc(=O)[nH]c(SCC(=O)Nc2ccc(Cl)cn2)n1	0.8
CC(=O)N(/N=C1\Sc2ccccc2C1=O)c1ccccc1C	0.1
CSc1ccccc1NC(=S)Nc1cccc(C(F)(F)F)c1	i
CCc1ccc(S(=O)(=O)c2n[nH]n3c2nc(=O)c2ccccc23)cc1	i
N#Cc1nc(-c2ccco2)oc1N1CCCC1	1.0
CCOC(=O)c1ccccc1NS(=O)(=O)c1ccc(S(=O)(=O)N2CCCC2)cc1	2.9
CC(C(=O)Nc1ccccc1F)N1C(=O)c2ccccc2C1=O (stereo unspecified)	i
O=C(NCCN1CCOCC1)c1cccs1	2.4
COc1cc(S(=O)(=O)NCC2CCCO2)c(OC)cc1Cl (stereo unspecified)	0.8
Cc1ccc(C)c(C(=O)CN2C3=NCCCN3c3ccccc32)c1	i
COc1ccccc1Oc1coc2c(CN(C)C)c(O)ccc2c1=O	i
CCOc1ccc(N=C2C(=O)N(CN3CCOCC3)c3ccccc32)cc1	0.1
CC(=O)NCCc1cc2cc(C)c(C)cc2[nH]c1=O	0.6
CCOC(=O)N1CCC(N2C(=O)c3ccccc3C2Nc2ccc3c(C)cc(=O)oc3c2)CC1 (stereo unspecified)	2.9

Overlap with the part before: four entries; new compounds follow.
SMILES	H5N1 CPE
COc1ccccc1Oc1coc2c(CN(C)C)c(O)ccc2c1=O	i
CCOc1ccc(N=C2C(=O)N(CN3CCOCC3)c3ccccc32)cc1	0.1
CC(=O)NCCc1cc2cc(C)c(C)cc2[nH]c1=O	0.6
CCOC(=O)N1CCC(N2C(=O)c3ccccc3C2Nc2ccc3c(C)cc(=O)oc3c2)CC1 (stereo unspecified)	2.9
CNC(=O)c1nnc(Cc2ccc(F)cc2)o1	1.2
CCCn1cc(S(=O)(=O)CC(=O)Nc2ccc(OCC)cc2)c2ccccc21	0.4
CCOC(=O)c1sc(NC(=O)CSc2ncn[nH]2)c(C#N)c1C	0.3
Cc1csc(NC(=O)c2nc(-c3ccccc3)n(-c3ccccc3)n2)n1	0.4
O=c1cc(CN2CCOCC2)nc(C2CC2)[nH]1	i
NC(=O)c1cn(-c2ccccc2)nc1-c1cccnc1	1.1
Cc1csc(NC(=O)C2CCCCC2C(=O)O)n1 (stereo unspecified)	0.1
COc1ccc(CCNC(=O)CN(c2ccccc2OC)S(C)(=O)=O)cc1OC	i
O/N=C(\Cc1cscn1)c1ccc(O)cc1O	0.2
O=C(Cn1cnc2ccccc2c1=O)Nc1ccc2c(c1)CCC2	i
COC(=O)c1ccc(Oc2nc(Nc3ccc(C)c(C)c3)nc(N(C)C)n2)cc1	1.2
CCOc1ccc(S(=O)(=O)N(C)c2ccc(OCC(=O)NCc3ccco3)cc2)cc1	i
c1ccc2c(c1)ncn2CCCOc1ccc2c(c1)CCC2	i
COC(=O)c1c(NC(=O)CSc2nnc(-c3cccnc3)n2Cc2ccco2)sc(C)c1C	1.2
O=C1CN(C(=O)c2ccccc2F)c2ccccc2N1	i
O=C(Nc1sc2c(c1C(=O)NC1CCCCC1)CCC2)c1ccco1	1.7
O=C(CCS(=O)(=O)c1cccc2nonc12)NCCc1ccccc1	0.5
c1ccc(Nc2nc(-c3ccccn3)cs2)cc1	1.0
CCCn1[nH]cc(SC)c(=O)c1=O	i
COc1ccc(-n2cc(C(=O)O)c3ccccc3c2=O)cc1	0.2
O=C(c1cc2c(s1)-c1ccccc1OC2)N1CCN(c2ccccn2)CC1	i
COc1ccccc1OC(=O)c1ccc(S(=O)(=O)N(C)C)cc1	1.4
Cc1cc2cc(CN(Cc3ccc4c(c3)OCO4)C(=O)c3cnccn3)c3nnnn3c2cc1C	1.9
CCCCNC(=S)NNC(=O)c1csc2c1CCC(C)C2 (stereo unspecified)	0.8
O=C(CSc1nnc2scc(-c3ccccc3)n12)N1CCCc2ccccc21	8.5
CCOc1ccccc1C1CC(c2ccccc2)Nc2nc(N)nn21 (stereo unspecified)	3.1
Cc1c(C(=O)O)oc2ccc(S(=O)(=O)NCCC3=CCCCC3)cc12	0.2
COCc1nnc(SCC(=O)NCc2ccccc2)n1-c1ccccc1	0.4
N#Cc1cc2c(nc1SCC(=O)Nc1ccc(Cl)cc1)C1CCN2CC1	i
Cc1ccc(-c2nc(CSCC(=O)NCc3cccnc3)c(C)o2)cc1	1.4
CCOc1cc(S(=O)(=O)NCc2ccc(OC)cc2)c(OCC)cc1-n1cnnn1	0.6
Cc1ccccc1-n1nnnc1SCc1csc(-c2ccccc2)n1	i
Cc1cnc(C(=O)Nc2ccccc2-n2cccc2)cn1	i
O=C(Oc1ccccc1N1C(=O)C2CCCCC2C1=O)c1ccc(Cl)cc1 (stereo unspecified)	i
COCCNC(=O)c1cc2c(-c3ccc(Cl)cc3)nn(C)c2s1	i
Cc1onc(-c2ccccc2Cl)c1C(=O)Nc1ccc2c(c1)OCO2	2.7
CC1CCCN(C(=O)c2sc3cc([N+](=O)[O-])ccc3c2Cl)C1 (stereo unspecified)	2.5
Cc1cccc(Cn2c(N3CCCCC3C)nc3c2c(=O)[nH]c(=O)n3C)c1 (stereo unspecified)	1.5
CN(C)S(=O)(=O)c1ccc(C(=O)Nc2nnc(Cc3ccccc3)s2)cc1	i
Cc1ccc(-n2c(SCc3ccc([N+](=O)[O-])cc3)nc3ccccc3c2=O)cc1	1.3
CCOC(=O)c1c(C)c(C(=O)Nc2ccc3c(c2)OCO3)c(C)n1C	0.1
COc1ccc(CC(=O)NCc2cccs2)cc1	i
Cc1noc(C)c1COc1ccc(C(=O)NCC2CCCO2)cc1 (stereo unspecified)	i
CSc1ccccc1C(=O)Nc1nccs1	i
COc1ccccc1NC(=O)COC(=O)CNC(=O)c1ccc(OC)c(OC)c1	i
CCN1CCCC1CNC(=O)Cn1cccc1C(=O)c1ccccc1C (stereo unspecified)	0.5
Oc1c(Br)cc(C2N=C(c3ccccc3Cl)NO2)cc1Br (stereo unspecified)	i
Cc1ccn2c(/C=N/OCc3cccc(F)c3)c(-c3ccc(Cl)cc3)nc2c1	0.8
O=C(c1ccc(NS(=O)(=O)c2cccs2)cc1)N1CCCCC1	1.4
CCc1cc2cccc(C)c2nc1SCC(=O)c1ccc(NC(C)=O)cc1	1.7
Cn1c(SCC2CCCO2)nnc1-c1ccncc1 (stereo unspecified)	0.4
O=C(c1ccccc1C(=O)N1CCN(c2ccccc2)CC1)N1CCN(c2ccccc2)CC1	1.5
COc1ccc(-c2nnc(SCC(=O)NC(C)c3ccccc3)o2)cc1OC (stereo unspecified)	i
CC(=O)c1cccc(NS(=O)(=O)c2ccc3c(c2)oc(=O)n3C)c1	i

An excerpt from above in order of length of the SMILES, ascending.
SMILES	H5N1 CPE
O=C(c1ccc(NS(=O)(=O)c2cccs2)cc1)N1CCCCC1	1.4
CCOC(=O)c1c(C)c(C(=O)Nc2ccc3c(c2)OCO3)c(C)n1C	0.1
COc1ccccc1NC(=O)COC(=O)CNC(=O)c1ccc(OC)c(OC)c1	i
